Screens: PubChem, National Center for Advancing Translational Sciences (NCATS)
2A StopGo – High Throughput Screening for Foot and Mouth Disease Virus Antivirals; human cells with a luciferase reporter of 2A StopGo recoding; control for the full effect not named in the record; Potency, µM (highest dose often 57.9 µM), inactives show top-dose signal change, negative = less light; 1.2% of 410,000 active; active = well fitted falling curve with a large enough effect; inconclusive = small, poorly fitted or top-dose-only effect; inactive = no such curve, though single readings can be large or run the other way; tested in HEK293T cells; note: % is set by controls: 0 for no effect and ±100 for the full control effect; nearly all actives have a fitted effect of over 45% in size; luciferase light after 4 h
Lassa entry inh – qHTS for Inhibitors of binding or entry into cells for Lassa Virus. Lassa virus pseudotype entry inhibition, cell reporter; control for the full effect not named in the record. Potency, µM (doses to about 37.9 µM), for the others: at the top dose activity change, negative = inhibition, hits mostly inhibitors. 1.2% of 300,000 active. AID 540256, 2011; active means well fitted inhibition curve with a large enough effect; inconclusive means small, poorly fitted or top-dose-only effect, or effect the other way; inactive means flat fitted curve, though single readings scatter; tested in HEK293 cells; note: % is set by controls: 0 for no effect and ±100 for the full control effect; nearly all actives have a fitted effect of over 50% in size; luciferase read-out
RE007 growth inh – qHTS Assay for Inhibitors of the HIV-1 protein Vpr. S. pombe RE007 Vpr strain, BacTiter-Glo ATP luminescence, 24 h; control for the full effect not named in the record. Potency, µM (titrated, usually from 92.2 µM), for the others: at the highest dose activity change, negative = less growth. 0.21% of 360,000 active; active = well fitted falling curve with a large enough effect; inconclusive = small, poorly fitted or top-dose-only effect; inactive = no such curve, though single readings can be large or run the other way;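 note: % is set by controls: 0 for no effect and ±100 for the full control effect; nearly all actives have a fitted effect of over 50% in size; the assay follows cell death caused by Vpr and the record does not say whether a fall means rescue or toxicity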
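Fission yeast RE007 carrying one integrated HIV-1 vpr copy, seeded at OD 0.01 in PMG+AL medium with 23 nL pinned compound. Grown 24 h at 30 degrees; viability read by BacTiter-Glo luminescence after 5 min.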
SARS PLpro yeast – qHTS of Yeast-based Assay for SARS-CoV PLP; 0.19% of 330,000 active; S. cerevisiae expressing SARS-CoV PLpro, growth rescue; control for the full effect not named in the record; AID 485353, 2010; Potency, µM (doses to about 32.9 µM), inactives show at the highest dose activity, positive = growth rescue; active means well fitted rising curve with a large enough effect; inconclusive means small, poorly fitted or top-dose-only effect; inactive means no such curve, though single readings can be large or run the other way; note: 0% is about no effect; nearly all actives have a fitted effect of over 55% in size; growth read by luminescence after 48 h
Marburg entry inh – qHTS for inhibitors of binding or entry into cells for Marburg Virus | Potency, µM (doses to about 37.8 µM), without a hit: top-dose activity change, negative = inhibition, hits mostly inhibitors | Marburg virus pseudotyped entry inhibition, cell reporter; control for the full effect not named in the record; about a third of the inactives were read at about 46 µM | 1.8% of 300,000 active | AID 540276, 2011; active = well fitted inhibition curve with a large enough effect; inconclusive = small, poorly fitted or top-dose-only effect, or effect the other way; inactive = flat fitted curve, though single readings scatter; tested in HEK293 cells; about a fifth of its hits are not listed in these tables; note: % is set by controls: 0 for no effect and ±100 for the full control effect; luciferase read-out
NS1 function inh – qHTS Assay for Inhibitors of Influenza NS1 Protein Function; S. cerevisiae slowed by influenza A NS1, growth recovery by OD600; Potency, µM (top dose mostly 46.1 µM), for inactives: at the highest dose activity, positive = more growth; 0.4% of 270,000 active; active means well fitted rising curve with a large enough effect; inconclusive means small, poorly fitted or top-dose-only effect; inactive means no such curve, though single readings can be large or run the other way; note: nearly all actives have a fitted effect of over 50% in size
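S. cerevisiae expressing influenza A NS1, grown in glucose, washed, then diluted 1:100 into pH 6.0 -URA galactose medium with 23 nl compound. Growth recovery read as OD600; NS1-free strain serves as control.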
Cruzain inh Det – qHTS Assay for Promiscuous and Specific Inhibitors of Cruzain (with detergent). Potency, µM, inactives show max response, negative = inhibition, actives largely listed as inhibitors. purified cruzain, Z-FR-AMC fluorescence, 0.01% Triton. 0.43% of 200,000 active;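 note: plate controls were neutral wells for no effect and buffer without enzyme for full effect; nearly all actives have a fitted effect of over 40% in size; top concentration of the series not given in the record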
Target sequence (P25779 123-467 limits assumed): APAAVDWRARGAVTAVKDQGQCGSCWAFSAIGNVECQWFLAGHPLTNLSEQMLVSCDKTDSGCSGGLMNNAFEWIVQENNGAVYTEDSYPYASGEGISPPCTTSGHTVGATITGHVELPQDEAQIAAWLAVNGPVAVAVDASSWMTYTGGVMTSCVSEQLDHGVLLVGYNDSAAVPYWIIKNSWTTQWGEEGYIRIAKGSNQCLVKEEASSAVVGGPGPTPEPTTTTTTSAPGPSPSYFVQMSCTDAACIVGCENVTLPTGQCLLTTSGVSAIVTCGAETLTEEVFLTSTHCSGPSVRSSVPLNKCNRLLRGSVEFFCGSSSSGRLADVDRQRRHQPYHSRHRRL
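Z-FR-AMC hydrolysis (2 uM substrate) by cruzain (1.5 nM) monitored kinetically at ex 360/em 450 nm after 15 min room-temperature compound exposure; 0.01% Triton X-100, pH 5.5, 5 mM DTT.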
Cruzain noTriton – qHTS Assay for Promiscuous and Specific Inhibitors of Cruzain (without detergent) | purified cruzain, Z-FR-AMC fluorescence, no detergent | Potency, µM, inactives show max response, negative = inhibition, hits mostly inhibitors | 2.3% of 200,000 active | AID 1476, 2009;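 note: plate controls were enzyme without inhibitor for no effect and buffer without enzyme for full effect; nearly all actives have a fitted effect of over 40% in size; top concentration of the series not given in the record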
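Detergent-free condition (0.00005% Triton X-100) in acetate buffer pH 5.5 with DTT. 1.5 nM enzyme and compound were pre-mixed 15 min, then 2 uM Z-FR-AMC substrate added; reaction progress from fluorescence change between first and third reads (60 s).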
* = called active by the depositor; ? = inconclusive; · = not tested or not shown; & = joins results of further samples; [ ] = another dose, or the depositor's remark. Unless noted, calls come from the whole dose curve; as a rule, active = well fitted curve in the direction sought with a large enough effect; inconclusive = small, poorly fitted or top-dose-only effect, or another doubt; inactive = no such curve, though single readings can be large; an effect the other way counts as inactive or inconclusive. Potency is the fitted concentration of half-maximal effect.

SMILES	2A StopGo	Lassa entry inh	RE007 growth inh	SARS PLpro yeast	Marburg entry inh	NS1 function inh	Cruzain inh Det	Cruzain noTriton
CCCCC(=O)Nc1ccc(NC(=S)NC(=O)c2cccs2)cc1OC	6.5%	-2.9%	-2.0%	-1.2%	18.7%	15.7%	-6.5%	13.1%
Cc1ccc(NC(=O)CSc2nc(=O)n(Cc3cccnc3)c3c2CCC3)cc1F	-27.7%	-3.8%[46.1 µM]	·	·	·	·	-3.4%	11.3%
Cc1ccc(NC(=O)CC2Nc3ccccc3NC2=O)cc1Cl (stereo unspecified)	32.0%[activator]	?	0.2%	0.4%	?	-8.1%	?	25.1µM*
CC1(C)Cc2c(sc(NC(=O)C(=O)NCCCN3CCOCC3)c2C#N)CO1	-3.8%	·	-10.8%	-1.1%	·	7.1%	·	·
Cc1nc(SCc2ccccc2)nc2c1CCC2	42.4%[activator]	-0.2%	2.6%	-3.2%	-7.5%[46.1 µM]	-21.9%	·	·
CCOc1ccccc1NC(=O)N1CCCN(c2ncccc2C#N)CC1	-19.5%	·	-0.1%	1.2%	·	-4.7%	·	·
O=C(CN1C2CCC1CC(NC(=O)NC1CCCCC1)C2)NC1CC1 (stereo unspecified)	14.6%	7.4%	-5.4%	14.7%	?	2.6%	-1.1%	-11.2%
Cc1cccc(-n2nc([N+](=O)[O-])c(=NCc3cccnc3)n2O)c1	40.0%[activator]	1.6%	-0.8%	-0.1%	-2.1%	-18.4%	-2.4%	-1.5%
COC(=O)c1ccc(Cl)c(NC(=O)C2CCN(S(=O)(=O)Cc3ccccc3)CC2)c1	-19.2%	-2.4%[46.1 µM]	·	·	?	·	0.0%	0.7%
O=C(Cc1ccc(F)cc1)NCCc1cnc[nH]1	2.7%	·	-14.2%	0.6%	·	9.8%	·	·
O=C(c1cccc(NS(=O)(=O)c2ccc(Br)cc2)c1)N1CCCCC1	26.6%	7.1%	17.2%	-0.8%	12.7%	·	·	·
COc1cc(/C=N\NC(=O)c2nonc2N)c(OC)cc1Br	0.0%	?	3.5%	14.8%	-35.2%	15.9%	-3.1%	-17.6%
Cc1ccc(CS/C(Nc2ccccc2C)=C(\C#N)C(N)=O)c(C)c1	-20.9%	-28.8%	6.6%	14.9%	-10.2%	2.3%	-8.4%	-2.9%
CCC(C)(C)NC(=O)CN(Cc1ccc2c(c1)OCO2)C(=O)CCC(=O)Nc1nccs1	-14.3%	-7.5%[46.1 µM]	11.1%	-0.4%	-9.8%[46.1 µM]	·	·	·
C[C@]12CCC3C(CC[C@H]4C[C@@H](O)CC[C@]34C)C1C[C@@H](Br)[C@@H]2O (stereo partly specified)	-15.5%	2.6%[46.1 µM]	10.7%	1.7%	2.1%[46.1 µM]	·	·	·

Some entries already given, showing only Lassa entry inh and SARS PLpro yeast.
Compound | Lassa entry inh | SARS PLpro yeast
COC(=O)c1ccc(Cl)c(NC(=O)C2CCN(S(=O)(=O)Cc3ccccc3)CC2)c1 | -2.4%[46.1 µM] | ·
O=C(Cc1ccc(F)cc1)NCCc1cnc[nH]1 | · | 0.6%

(more compounds)
SMILES	2A StopGo	Lassa entry inh	RE007 growth inh	SARS PLpro yeast	Marburg entry inh	NS1 function inh	Cruzain inh Det	Cruzain noTriton
Cc1cccc(S(=O)(=O)Nc2cccc(-c3ccc(N4CCCCC4)nn3)c2)c1	64.7%[activator]	-19.9%[46.1 µM]	·	·	·	·	-5.2%	?
NNC(=S)Nc1ccc(S(=O)(=O)N2CCCCC2)cc1	6.6%	-27.2%[46.1 µM]	1.0%	0.0%	?	3.4%	·	·
COc1ccc(-c2c(C)c3ccc(O)c(CN4CCCC4)c3oc2=O)cc1	-5.3%	-28.2%[46.1 µM]	·	·	·	·	-6.1%	3.4%
COc1ccccc1CNCC(=O)Nc1cc(S(=O)(=O)N2CCCCC2)ccc1C	?	?	-1.4%	1.2%	-29.3%	·	·	·
CCCNC(=O)CC(NS(=O)(=O)c1ccc(Cl)cc1)c1ccco1 (stereo unspecified)	-14.2%	5.3%	12.4%	-9.6%	8.0%	-5.5%	4.1%	-1.9%
Cc1ccc(C(=O)c2ccccc2C(=O)OCC(=O)NCCc2ccccc2)cc1	0.0%	-24.9%	5.9%	-20.6%	?	-3.6%	-7.1%	-7.5%
O=C1NC2(CCCCCC2)C(=O)N1Cc1ccc([N+](=O)[O-])cc1	?	-6.3%	1.5%	19.9%	-8.4%	-1.5%	-2.6%	-7.9%
CCc1ccc(OCC2NCCc3cc(OC)c(OC)cc32)cc1 (stereo unspecified)	-22.4%	·	4.1%	-4.8%	·	3.2%	·	·
O=C(Nc1ccc2c(c1)OCO2)C1COc2ccccc2O1 (stereo unspecified)	9.5%	-2.1%	0.6%	-6.8%	-9.1%	-13.8%	-3.0%	-22.9%
NC(=O)NC(c1ccc(Cl)cc1)c1ccccc1Cl (stereo unspecified)	-5.6%	6.6%[46.1 µM]	8.2%	-0.8%	-28.5%[46.1 µM]	-0.9%	·	·
COc1ccc(/C=N/NC(=O)c2ccncc2)c(OC)c1	12.1%	·	-3.1%	-1.8%	·	5.5%	·	·
Cc1ccc(C)n1-c1nnc(N2CCC(C(=O)NCc3ccccc3Cl)CC2)s1	-10.1%	1.6%[46.1 µM]	·	·	4.5%[46.1 µM]	·	-13.5%	0.4%
CCC(CC)NC(=O)Nc1ccc(C)cc1	-14.9%	?	-3.5%	-0.8%	1.3%[46.1 µM]	1.4%	·	·
Cc1ccc[n+](CC(=O)N2CCCc3ccccc32)c1	-1.2%	·	1.5%	0.7%	·	-0.4%	·	·
CCOc1cc(C#N)c(NC(=O)c2ccc(OC)c(S(=O)(=O)N3CCCCC3)c2)cc1OCC	-12.2%	3.1%[46.1 µM]	·	·	-12.2%[46.1 µM]	·	-5.4%	?
CCCCCc1ccc(-c2cn(CCc3c[nH]c4ccccc34)nn2)cc1	-23.1%	·	4.0%	-2.0%	·	7.8%	·	·
CCOC(=O)c1cc(S(=O)(=O)NCc2ccc3c(c2)OCO3)cn1C	18.9%	·	-8.4%	-0.4%	·	-2.8%	·	·
CCCn1c(=O)c(C#N)cn(C2CC2)c1=O	3.0%	11.7%[46.1 µM]	19.1%	0.7%	?	5.4%	·	·
CN(C)S(=O)(=O)c1ccc(C(=O)NCc2nnc(SCC(=O)NCc3ccco3)o2)cc1	-0.7%	0.7%	2.1%	-2.8%	23.9%	-9.6%	·	·
COc1ccccc1NC(=S)NC1CCC(CC2CCC(NC(=S)Nc3ccccc3OC)CC2)CC1 (stereo unspecified)	-27.6%	-11.4%	4.2%	-3.0%	-0.2%	?	6.6%	3.98µM*
O=C(c1c(F)cccc1F)N(Cc1ccccc1)Cc1ccccc1	5.8%	-11.5%	6.5%	-3.2%	-22.8%[46.1 µM]	-29.7%	·	·
COc1cc(C(=O)NCc2nc(-c3ccc(Cl)cc3)no2)cc(OC)c1OC	-8.9%	19.5%[46.1 µM]	·	·	?	·	-4.2%	-7.0%
COc1cc(C2NC(=S)NC(C)=C2C(=O)Nc2ccc(C)cc2)ccc1O (stereo unspecified)	14.9%	8.5%[46.1 µM]	0.7%	-1.1%	?	-4.7%	·	·
COCCN(C(=O)COC(=O)c1ccc(Cl)nc1)c1c(N)n(Cc2ccccc2)c(=O)[nH]c1=O	-10.2%	5.2%	16.2%	0.3%	1.8%[46.1 µM]	·	·	·
O=C1Nc2ccccc2C12NCCc1c2[nH]c2ccccc12 (stereo unspecified)	6.9%	9.6%	-4.4%	-4.1%	1.3%	-9.2%	6.1%	-7.8%
CSc1nc2nc(-c3ccc(F)cc3)c(CCN3CCN(C)CC3)cn2n1	-24.2%	26.3%[46.1 µM]	3.4%	-0.3%	-2.5%[46.1 µM]	6.3%	·	·
O=C(O)Cc1ccc(OCc2ccc(Cl)nc2)cc1	18.4%	-3.4%	-13.1%	0.7%	-17.5%[46.1 µM]	·	·	·
COc1cccc(N(C(=O)CNC(=O)c2ccco2)C(C(=O)NC2CCCC2)c2ccco2)c1 (stereo unspecified)	-4.6%	·	6.9%	3.0%	-2.8%[46.1 µM]	4.3%	·	·
COc1ccc(CCN2CCCC(CN(C)C(=O)c3ccoc3)C2)cc1 (stereo unspecified)	0.0%	·	-12.8%	2.8%	·	8.2%	·	·
CCSc1nc2ccccc2n1S(=O)(=O)c1ccccc1	-1.4%	·	12.0%	-10.1%	·	-62.4%	-8.4%	-9.9%
COc1ccc(OCCN(C)C(=O)c2cccc(S(=O)(=O)N(C)c3ccccc3)c2)cc1	-19.7%	-18.4%	3.8%	-0.9%	-55.9%	·	·	·
Cc1ccc(CNC(=O)[C@H]2C[C@@H]2[C@H](NP(=O)(c2ccccc2)c2ccccc2)c2ccccc2)o1	-4.9%	?	-10.8%	10.5%	?	-6.2%	-1.0%&-3.4%	7.1%&-5.1%
CCOC(=O)c1nc(NNC(=O)c2ccc([N+](=O)[O-])cc2)sc1C	-1.9%	?	9.4%	2.1%	8.91µM*	-17.3%	·	·
C=CCOC(=O)c1ccc(N2CCN(c3ccccc3)CC2)nc1	-7.1%	-0.7%[46.1 µM]	2.3%	-4.2%	?	-1.3%	·	·
Cc1ccc(CN2C(=O)CCC2C(=O)NCc2ccc(F)cc2)cc1 (stereo unspecified)	-0.7%	?	5.1%	15.3%	11.6%	3.9%	1.4%	-3.4%
c1ccc(NCc2nc3ccccc3n2CCOc2ccccc2)cc1	-16.4%	17.3%	-24.3%	-55.7%	?	-8.2%	-7.0%	0.8%
CCc1cc2c(cc3c(=O)n(CC(=O)NCCCN4CCCCCC4)nc(CC)n32)s1	-10.4%	·	6.4%	-3.3%	·	-2.4%	·	·
O=c1c2cccnc2[nH]c(=S)n1Cc1ccccc1	2.0%	27.2%	20.5%	16.9%	1.5%	1.5%	0.4%	?
COc1ccc(N2CCN(C(=O)CCc3nc(-c4ccc(C)cc4)no3)CC2)cc1	-18.5%	7.0%	3.9%	-4.6%	8.1%	1.3%	-10.5%	?
